INS promoter inh: TRM-6 insulin promoter activity inhibition; TRM-6 cells (human fetal islet line), insulin promoter-eGFP reporter, imaging; reporter expression induced with tamoxifen; inhibition, % at 2 µM; AID 1273; hit rate 0.9% among 130,000;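 active means inhibition above the mean plus 3 SD, with well images judged a real hit on visual review, cut at about 60% in these data, passing the limit was not always enough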
HSV replic up: HSV replication enhancement | HSV replication augmentation in cells, fold increase | maximum fold increase | hit rate 0.005% among 220,000 | AID 1956;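 active means peak rise of 1.5-fold or more in the series; tested in PC3 cells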;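 further: first round at 10 µM; read as green reporter fluorescence; hits show the peak of a series up to 25 µM; 1 = signal of infected wells without compound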
PKD1 kinase inh: blocks activity of human protein kinase D1; Q15139; PKD1 kinase fluorescence polarization assay; inhibition, %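 (about 10 µM by stock and volumes)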; hit rate 0.056% among 200,000;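 active means inhibition of 50% or more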;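 further: controls were vehicle for no effect and a reference inhibitor for full effect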
Target sequence (Q15139 whole entry, looked up): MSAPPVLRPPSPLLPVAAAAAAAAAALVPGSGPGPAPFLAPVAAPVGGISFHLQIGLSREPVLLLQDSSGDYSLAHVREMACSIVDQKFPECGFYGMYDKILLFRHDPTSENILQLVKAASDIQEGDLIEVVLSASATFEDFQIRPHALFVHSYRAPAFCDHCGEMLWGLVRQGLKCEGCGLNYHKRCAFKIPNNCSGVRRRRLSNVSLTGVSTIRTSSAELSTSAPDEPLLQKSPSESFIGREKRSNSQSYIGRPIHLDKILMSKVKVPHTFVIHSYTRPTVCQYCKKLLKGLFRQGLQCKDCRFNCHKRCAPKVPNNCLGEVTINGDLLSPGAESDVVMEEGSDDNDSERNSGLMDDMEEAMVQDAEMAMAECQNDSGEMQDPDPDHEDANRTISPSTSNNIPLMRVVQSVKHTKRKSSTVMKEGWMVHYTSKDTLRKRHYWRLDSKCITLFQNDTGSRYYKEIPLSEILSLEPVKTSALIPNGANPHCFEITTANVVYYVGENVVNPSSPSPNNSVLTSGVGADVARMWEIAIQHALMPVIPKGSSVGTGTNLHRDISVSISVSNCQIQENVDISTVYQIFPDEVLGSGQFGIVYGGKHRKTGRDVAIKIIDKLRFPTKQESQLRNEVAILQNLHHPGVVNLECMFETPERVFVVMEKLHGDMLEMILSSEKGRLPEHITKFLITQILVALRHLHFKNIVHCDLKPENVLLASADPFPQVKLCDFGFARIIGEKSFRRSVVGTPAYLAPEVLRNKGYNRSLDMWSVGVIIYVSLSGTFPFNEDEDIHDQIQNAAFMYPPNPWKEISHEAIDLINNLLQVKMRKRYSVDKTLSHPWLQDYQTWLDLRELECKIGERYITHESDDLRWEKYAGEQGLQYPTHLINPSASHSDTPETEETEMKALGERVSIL
RGS16-Gao: regulators of human RGS16-Galphao interaction; bead-based flow cytometry RGS16-Galphao binding, fluorescence; actives lie on both sides; O15492+P09471; binding response (% of control), % at 10 µM; hit rate 0.38% among 220,000;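 active means below 25% or above 175%, edge rows of some plates excepted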;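 further: Galphao activated by GDP with aluminum fluoride before binding; 100% = wells without compound and 0% = beads without RGS; some results beyond the cut were filed as inactive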
GALR2 ag: GALR2 (human) receptor agonism. AID 803. O43603. GALR2-expressing cells, agonist activation read-out. hit rate 0.48% among 140,000. activation, %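 (tested at 5 µM)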;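 active means above mean plus 3 SD of all compounds, about 5% in these data, not always enough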;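 further: 0% = vehicle buffer wells and 100% = reference agonist at full effect; tested in CHO reporter cells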
INS promoter inh cell count: recorded beside INS promoter inh, whose call it bears; normalized cell count, %; measured here: cell count, toxicity; reference of the scale not given here;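 cells exposed to compound for 48 h; stained nuclei by imaging scaled within each plate; lower means fewer cells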
HSV replic up primary fold: further read-out of HSV replic up, marked with its call; fold increase; compound at 10 µM; measured here: primary screen fold increase 10 uM; tested in PC3 cells;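 GFP signal in the first replicate; 1 = infected wells without compound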
Active calls of the source: *; i = inactive; nt = not tested or not shown.

SMILES,INS promoter inh,INS promoter inh cell count,HSV replic up,HSV replic up primary fold,PKD1 kinase inh,RGS16-Gao,GALR2 ag
COc1cccc(OCC(O)CN2CCN(CCN3C(=O)c4cccc5cccc(c45)C3=O)CC2)c1 (stereo not given),-20,78,i,0.67,-3,40,nt
O=C(Cn1nc(Cc2cccnc2)c2ccccc2c1=O)NCC1CCCO1 (stereo not given),nt,nt,i,1.1,1,105,-2.8
CCOP(=O)(OCC)C(Nc1cccc(C(F)(F)F)c1)c1ccc(F)cc1 (stereo not given),-37,140,i,0.97,4,100,-0.6
CCOC(=O)c1ccc(CNC(=O)c2n[nH]c(=O)c3ccccc23)o1,nt,nt,i,0.73,-2,100,-0.6
Cc1ccc(S(=O)(=O)Cc2ccc(C(=O)N3CCCC3)o2)cc1,nt,nt,i,0.98,1,99,-2.6
O=C(CO/N=C/c1ccccc1O)NNC(=O)c1ccccc1Cl,52,140,i,0.78,-9,67,-1.8
COc1cccc(C(=O)NC2=NCCS2)c1,75*,103*,i,1.1,4,102,-1.4
Cc1ccc(NC(=O)Cc2nnc(SCC(=O)c3ccc(Br)cc3)n2C)cc1,-11,101,i,0.83,-5,105,1.8

As a working copy, part of the list above.
SMILES,INS promoter inh,INS promoter inh cell count,HSV replic up,HSV replic up primary fold,PKD1 kinase inh,RGS16-Gao,GALR2 ag
COc1cccc(OCC(O)CN2CCN(CCN3C(=O)c4cccc5cccc(c45)C3=O)CC2)c1 (stereo not given),-20,78,i,0.67,-3,40,nt
O=C(Cn1nc(Cc2cccnc2)c2ccccc2c1=O)NCC1CCCO1 (stereo not given),nt,nt,i,1.1,1,105,-2.8
CCOP(=O)(OCC)C(Nc1cccc(C(F)(F)F)c1)c1ccc(F)cc1 (stereo not given),-37,140,i,0.97,4,100,-0.6

(further entries)
SMILES,INS promoter inh,INS promoter inh cell count,HSV replic up,HSV replic up primary fold,PKD1 kinase inh,RGS16-Gao,GALR2 ag
NC1=NC(=O)C(Cc2cccc(Cl)c2Cl)S1 (stereo not given),nt,nt,i,0.9,0,75,-0.6
Cn1cc(Br)c(C(=O)NC(=S)Nc2ccc(S(N)(=O)=O)cc2)n1,nt,nt,i,0.66,2,112,nt
CC(C)OC(=O)Nc1ccc(Oc2c(F)c(F)c(F)c(F)c2F)cc1,-9,130,i,0.85,-8,95,0.7
CCCc1nc(N2CCCC2)c(C#N)c2c1CCCC2,8,83,i,0.91,2,100,-0.2
CCOC(=O)C1CCCN(C(=O)c2c(-c3ccccc3Cl)noc2C)C1 (stereo not given),nt,nt,i,0.89,5,105,-2.4
CC(NC(=O)CCCCCCN1C(=O)c2ccccc2C1=O)c1ccc2c(c1)CCCC2 (stereo not given),nt,nt,i,0.82,0,110,-1.0
CSc1ccc(NC(=O)Nc2cccn(Cc3ccccc3F)c2=O)cc1,19,131,i,0.96,1,104,nt
Cc1ccc(S(=O)(=O)Nc2nccs2)cc1[N+](=O)[O-],43,89,i,1.1,3,103,nt

An excerpt from above in order of SMILES length, rising:
SMILES,INS promoter inh,INS promoter inh cell count,HSV replic up,HSV replic up primary fold,PKD1 kinase inh,RGS16-Gao,GALR2 ag
NC1=NC(=O)C(Cc2cccc(Cl)c2Cl)S1 (stereo not given),nt,nt,i,0.9,0,75,-0.6
Cc1ccc(S(=O)(=O)Nc2nccs2)cc1[N+](=O)[O-],43,89,i,1.1,3,103,nt
CC(C)OC(=O)Nc1ccc(Oc2c(F)c(F)c(F)c(F)c2F)cc1,-9,130,i,0.85,-8,95,0.7
Cn1cc(Br)c(C(=O)NC(=S)Nc2ccc(S(N)(=O)=O)cc2)n1,nt,nt,i,0.66,2,112,nt
CC(NC(=O)CCCCCCN1C(=O)c2ccccc2C1=O)c1ccc2c(c1)CCCC2 (stereo not given),nt,nt,i,0.82,0,110,-1.0

(list continues)
SMILES,INS promoter inh,INS promoter inh cell count,HSV replic up,HSV replic up primary fold,PKD1 kinase inh,RGS16-Gao,GALR2 ag
CCc1ccc(C2CC(c3ccccc3C)n3nc(N)nc3N2)cc1 (stereo not given),nt,nt,i,1.2,-2,92,-0.8
CCN(CC)S(=O)(=O)c1cc(C(=O)OCC(=O)Nc2cccc(S(=O)(=O)N(C)C)c2)ccc1F,nt,nt,i,1.1,14,101,nt
CCCCNC(=O)OC1CCS(=O)(=O)C1 (stereo not given),nt,nt,i,1.1,-20,84,-1.8
N#CC[n+]1cc(-c2ccc(Cl)cc2)n2c1CCC2,-55,126,i,1.1,-7,110,-1.0
COc1cc(-c2nc3ccccn3c2/N=C/c2ccccc2)ccc1O,nt,nt,i,0.91,2,99,-0.6
Cn1c(=O)c2cc(S(=O)(=O)NC(C(=O)N3CCCCCC3)c3ccccc3)ccc2n(C)c1=O (stereo not given),nt,nt,i,0.93,5,98,-3.1
COc1ccc2c(c1)nc(NCCO)n2C,0,117,i,0.97,-2,106,-0.8
O=C(/C=C\c1cn(-c2ccccc2)nc1-c1cccs1)N1CCOCC1,-45,127,i,0.76,2,99,0.1
COc1ccc(-n2nc([N+](=O)[O-])c(=NCCc3ccc(C)cc3)n2O)cc1,0,131,i,0.87,-2,93,nt
Cn1cc(SCC(=O)N2CCN(c3ccccc3)CC2)c2ccccc21,nt,nt,nt,nt,7,99,-4.2
O=S(=O)(c1ccc(Cl)cc1)N1CCC(N2CCOCC2)CC1,nt,nt,i,1,0,90,-1.7
Cc1nc2ccccc2n2c(O)c(CC(=O)O)cc12,nt,nt,i,1.2,7,99,-0.3
Cc1ccc(N(C(=O)c2nsc(Cl)c2Cl)C(C(=O)NC2CCCC2)c2ccc(O)cc2)cc1C (stereo not given),-69,81,i,1,-2,90,-0.5
CCn1c(SCCOc2ccc(OC)cc2)nnc1C(CO)NC(=O)c1ccc(OC)cc1 (stereo not given),-40,115,i,0.76,-11,101,-2.7
Cc1noc(C)c1NC(=O)N1CCN(Cc2ccccc2)CC1,nt,nt,i,0.86,nt,95,nt
COC(=O)CCN(C1CCCCC1)S(=O)(=O)c1ccc(S(=O)(=O)N2CCCCC2)cc1,nt,nt,i,1,-6,96,-1.9
COc1cccc(CC(C(=O)Nc2cc(C)ccc2C)c2nn[nH]n2)c1OC (stereo not given),-27,133,i,1.1,-6,99,-2.1
O=C1c2ccccc2C(=O)N1CCCCn1c(=O)oc2ccccc21,nt,nt,i,0.78,5,98,-1.3
CN(Cc1nc(-c2cccs2)no1)CC(O)c1ccccc1 (stereo not given),nt,nt,i,1.1,16,102,nt
CC1CCCCC1NC(=O)/C(C#N)=C/c1ccc(F)c(F)c1 (stereo not given),-40,120,i,0.77,-10,97,-1.1
O=CNCC(=O)NC1CCCCCC1,nt,nt,i,0.78,6,86,-3.0
CC1=C(Sc2ccccn2)C(=O)NC(C)(C)C1,17,101,i,0.9,-4,110,-1.2
COc1ccc(C2=Nn3c(nnc3-c3cc(C)[nH]n3)SC2)cc1,nt,nt,i,0.92,nt,97,nt
Cc1cccc(NS(=O)(=O)c2ccc(C3CCCCC3)cc2)c1,nt,nt,i,1,2,106,0.3
O=C(O)C(C/C(=N/O)c1ccc(Br)cc1)P(=O)(c1ccccc1)c1ccccc1 (stereo not given),nt,nt,i,0.99,nt,99,nt
CC12C=CC3(O1)C(C(=O)N(c1ccccc1)C3C(=O)NC1CCCC1)C2C(N)=O (stereo not given),49,164,i,0.92,-10,nt,-2.3
CC(=C/c1ccc(C(C)C)cc1)/C=N/NC(=O)Cn1nc(C)cc1C,19,120,i,0.77,-3,102,0.7
COc1ccccc1NC(=O)Cn1cnc2c(cnn2-c2ccc(C)c(C)c2)c1=O,nt,nt,nt,nt,1,103,0.5
COC(=O)c1ccc(N(C(=O)c2ccco2)C(C(=O)NC2CCCC2)c2ccco2)cc1 (stereo not given),-19,82,i,0.71,1,59,-2.3
COc1ccc(-c2nc3c(-c4ccc(F)cc4)cnn3cc2C)cc1F,nt,nt,i,0.96,-1,94,nt
CCN(CC)S(=O)(=O)c1ccc(Cl)c(C(=O)NC2CCCC2)c1,nt,nt,i,0.95,1,110,-1.9
O=C(C1CCN(Cc2ccc(OCc3ccccc3)cc2)CC1)N1CCCC1,nt,nt,i,0.97,-8,99,-2.4
O=C(NNC(=S)Nc1ccccc1)c1cccs1,-27,112,i,0.98,-1,98,-1.1
Fc1cccc(NC(=S)N2CCCCC2)c1,nt,nt,i,0.89,0,100,-4.2
CCSc1nc2ccccc2n1CC(=O)N1CCCCC1,nt,nt,i,1,-7,97,-1.3
CSc1ccc(CN(C)CC(=O)Nc2cccc(Br)c2)cc1,nt,nt,i,1,-8,96,-1.6
CC1CCCC(C)N1/N=C/c1ccccc1C(=O)O (stereo not given),72*,176*,i,0.91,4,101,nt
O=C(Nn1c(C2CCCCC2)nc2ccccc2c1=O)c1ccc([N+](=O)[O-])cc1,12,95,i,1.1,-6,121,0.0
CN1CCN(c2ccc(CNS(=O)(=O)c3ccsc3)cc2)CC1,nt,nt,i,0.96,nt,100,nt
Cc1c(N(CC(=O)O)S(=O)(=O)c2ccccc2)c(=O)n(-c2ccccc2)n1C,-28,62,i,1,17,113,nt
CCn1cc(C(=O)OCC(=O)N2C(C)CCCC2C)c(=O)c2ccc(C)nc21 (stereo not given),nt,nt,i,1.1,-1,99,nt
CC(C)Cc1nnc(NC(=O)CCC(=O)N2CCN(c3ccccn3)CC2)s1,19,191,i,0.88,-1,106,-0.2
Cc1ccc(S(=O)(=O)Cn2nnnc2C(C(C)C)N2CCN(Cc3ccco3)CC2)cc1 (stereo not given),nt,nt,i,0.66,-8,95,-1.9
COC(=O)COc1ccc(S(=O)(=O)Nc2ccc(C(N)=O)cc2)cc1,-128,68,i,0.86,-6,104,-1.6
O=C(c1cc(-c2ccncc2)nc2ccc(Br)cc12)N1CCN(c2ccccn2)CC1,-34,82,i,0.7,-1,94,-3.2
Cc1csc(NC(=O)CSc2nnc(-c3ccncc3)n2C)n1,nt,nt,i,0.88,-6,116,-1.6
COc1ccccc1N1CCN(C(=O)c2ccc(S(=O)(=O)N3CCCCCC3)cc2)CC1,-162,115,i,0.97,0,99,-0.4
CC1CCN(CCC(=O)N/N=C/c2ccc([N+](=O)[O-])cc2)CC1,nt,nt,i,0.78,1,99,nt
O=C(CSc1nnc(-c2ccccc2)n1Cc1ccccc1)N1CCCC1,18,115,i,0.85,0,99,-1.5
O=C1c2cc(S(=O)(=O)NCCO)ccc2-c2ccc(S(=O)(=O)NCCO)cc21,nt,nt,i,0.96,-7,96,nt

Screens from PubChem.
